# Screening data: PubChem, National Center for Advancing Translational Sciences (NCATS)
# AmpC nodet inh – inhibitors of E. coli AmpC beta-lactamase without detergent; P00811; AmpC nitrocefin hydrolysis, absorbance 480 nm, no detergent; potencies from a single point are estimates; Potency, µM (top dose mostly 28.7 µM), inactives show top-dose activity change, negative = inhibition; hit rate 1.8% among 71,000; active = falling curve, for most hits resting on a single point; inconclusive = weak or doubtful change; inactive = flat or rising curve; further: % of control where 0% means no effect; about half of the hits show no inhibition at the top dose; a quarter of the inactives give rising signals
# Target sequence (P00811 whole entry, looked up): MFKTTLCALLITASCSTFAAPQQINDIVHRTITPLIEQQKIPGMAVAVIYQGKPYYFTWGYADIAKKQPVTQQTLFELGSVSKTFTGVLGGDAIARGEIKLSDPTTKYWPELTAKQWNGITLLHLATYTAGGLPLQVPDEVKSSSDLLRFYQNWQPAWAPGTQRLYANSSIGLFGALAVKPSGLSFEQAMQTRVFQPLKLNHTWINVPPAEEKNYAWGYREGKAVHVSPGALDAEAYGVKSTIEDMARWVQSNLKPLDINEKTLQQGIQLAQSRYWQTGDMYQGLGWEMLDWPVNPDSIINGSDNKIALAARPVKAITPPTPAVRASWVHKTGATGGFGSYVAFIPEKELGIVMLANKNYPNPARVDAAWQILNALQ
#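 AmpC, 20 mM phosphate pH 7.0; 15 min cpd preinc, RT; start with nitrocefin (800 uM stock); A480 kinetic read, 20 s intervals, 4 min. No-enzyme wells = negative control.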
# * = called active by the depositor; [ ] = another dose, or the depositor's remark. Potency means the concentration at half of the fitted maximal effect.
SMILES,AmpC nodet inh
CC(C)(C)C(=O)NC(c1ccc(Cl)cc1)[C@]1(C)C[C@H]1C1CCCCC1 (some centres undefined),-14%
O=C1CC(SC(=NCc2ccc3c(c2)OCO3)Nc2ccccc2)C(=O)N1 (centres undefined),86%
Cc1cccc(Nc2nn3c(=O)c4ccccc4nc3s2)c1,3%
Cc1ccc(Cn2c(SCCN3CCCCC3)nc3c2c(=O)[nH]c(=O)n3C)cc1,10%
CC12CC[C@@H]3c4ccc(OP(=O)(O)O)cc4CCC3C1CCC2=O (some centres undefined),2%[5.75 µM]
Cc1cccc(-n2c(N)c(C(=O)N3CCN(C)CC3)sc2=S)c1,24%
CCCC(=O)N1CC2(C)CN(C(=O)CCC)CC(CCC)(C1)C2=O,15%
COc1ccc(C(N)CCc2ccco2)cc1 (centres undefined),5%

# Next part.
SMILES,AmpC nodet inh
O=C(CCn1c(=O)oc2ccccc21)n1c(=O)oc2ccccc21,-17%
Cc1c(C(=O)OCC(C)(C)CN(C)C)oc2ccccc12,18%
O=C(CN1CCN(c2ccc(F)cc2)CC1)NCC1CCCO1 (centres undefined),16%
CCOc1ccc(-n2c(Cc3cc(=O)[nH]c(=O)[nH]3)nnc2SC(C)C(=O)OC)cc1 (centres undefined),24%
COCCNC(=O)c1ccc(CS(=O)(=O)c2ccccc2)o1,1%
COc1cccc(-c2cncnc2NCc2cccnc2)c1,11%
Cc1ccc(S(=O)(=O)C2(C(=O)NC3CCCC3)CC2)cc1,-5%
Cc1nc(NCCCn2ccnc2)c2ccccc2n1,-19%

# In the list so far, 2 have an aryl methoxy group:
SMILES,AmpC nodet inh
COc1ccc(C(N)CCc2ccco2)cc1 (centres undefined),5%
COc1cccc(-c2cncnc2NCc2cccnc2)c1,11%

# (listing goes on)
SMILES,AmpC nodet inh
Cc1ncoc1C(=O)Nc1ccc2c(c1)OCCO2,-7%
CCOC(=O)C1CCN(C(=O)Cc2cccs2)CC1,-7%
COc1ccc(S(=O)(=O)N(CC(=O)N2CCN(C)CC2)c2ccc(C)cc2)cc1OC,66%
C[C@@H]1C=C[C@](Cc2ccccc2)(C(=O)NCCCNc2ncc(C(F)(F)F)cc2Cl)N1C(=O)c1ccccc1,51%
O=C(Nc1nccs1)c1cc(N2CCOCC2)nc2ccccc12,40%
CSc1ccc(S(=O)(=O)Nc2ccc3c(c2)OCCO3)cc1,1%
Cc1ccc(NC(=O)CC2Oc3ccccc3NC2=O)c(C)c1 (centres undefined),4µM*[single pt active]
O=c1[nH]cnc2scc(-c3ccsc3)c12,2%

# Continuation:
SMILES,AmpC nodet inh
COc1ccc(NC(=O)c2cc(-c3ccc(O)cc3)on2)cc1OC,-4%
O=C(O)C1C2CCC(C2)C1C(=O)NCc1ccccn1 (centres undefined),-9%
O=C(CCCc1cccs1)N1CCN(S(=O)(=O)c2ccccc2Br)CC1,40%
CCCS(=O)(=O)N1CCCC(C(=O)NCCCN2CCCC2=O)C1 (centres undefined),4%
Nc1ccc(NC(=O)c2cccs2)c(Cl)c1,-9%
CCOC(=O)c1c(-c2ccccc2)csc1NC(=O)CSc1nnnn1C,52%
Cc1ccc(Cl)cc1NC(=O)CSc1nnc(C)n1-c1ccccc1,56%
CCC(=O)Nc1nc2ccccc2n1Cc1ccccc1,16%

# Other compounds:
SMILES,AmpC nodet inh
COc1ccc(CN2CCOCC2)c(C)c1C,-1%
CCCCn1c(SCC(=O)Nc2nnc(CC)s2)nc2ccccc2c1=O,-13%
CC1(C)Cc2ccccc2-c2n[nH]c(=S)n21,-9%
CCOC(=O)C1CCCN(C(=O)C2CCC(CNS(=O)(=O)c3ccc(NC(C)=O)cc3)CC2)C1 (centres undefined),61%
CN(C)S(=O)(=O)c1cccc(CSc2cccc[n+]2[O-])c1,-6%
CC1(C)CC(=O)C(C2(O)C(=O)N(Cc3ccccc3)c3ccccc32)CO1 (centres undefined),28%
Cc1cc(C)n(/N=C/c2ccccc2)c(=O)c1C#N,5%
Cc1ccc2nc(NC(=O)CCNS(=O)(=O)c3ccc(Br)s3)sc2c1,-1%

# (further entries)
SMILES,AmpC nodet inh
N#Cc1cc(C(=O)c2cc(Cl)ccc2O)cn(CC2CCCO2)c1=O (centres undefined),-14%
CCCc1cc2c(n1Cc1ccc(C)cc1)C(C)C1CN(C(=O)c3ccccc3)C(C)(C(=O)OC)C21 (centres undefined),135%
Cc1ncsc1C(=O)Nc1nc2c(s1)CCCC2,-1%
O=C(Cc1ccc(Cl)cc1)Nc1ccc(-c2nnc(-c3ccco3)o2)cc1,25%
O=C(OCn1cncn1)c1ccc(Cl)cc1Cl,-5%
CCOc1ccc(OCC)c(N=c2oc3c(C)ncc(CO)c3cc2C(N)=O)c1,23%
CCC(c1nnnn1Cc1ccco1)N1CCN(c2cc(Cl)ccc2C)CC1 (centres undefined),31%
Cc1cccc2sc(NC(=O)C3CCCO3)nc12 (centres undefined),15%

# Next records.
SMILES,AmpC nodet inh
COC(=O)c1ccccc1NC(=O)c1ccccc1N(C)S(C)(=O)=O,21%
CCOc1ccccc1CNC(=O)CCN1C(=O)COc2ccccc21,14%
Cc1cccc(NC(=O)Nc2cc(C)on2)c1,8%
O=C(c1ccc2c(c1)OCO2)N1CCN(c2ccc(F)cc2)CC1,22%
Cc1ccc(OCCN2CCN(C(=O)CCC(=O)Nc3nnc(C)s3)CC2)cc1,20%
COc1ccc2nc(C)cc(Nc3ccc(N4CCOCC4)cc3)c2c1,13%
Cc1cc(=O)[nH]c(SCCOc2cccc(C(F)(F)F)c2)n1,0%
CN(C)/C=N/c1c(C#N)cnn1-c1nc2ccccc2s1,6%

# A second format for some results above:
> COc1ccc2nc(C)cc(Nc3ccc(N4CCOCC4)cc3)c2c1
  AmpC nodet inh: 13%
> Cc1ccc(OCCN2CCN(C(=O)CCC(=O)Nc3nnc(C)s3)CC2)cc1
  AmpC nodet inh: 20%
> COC(=O)c1ccccc1NC(=O)c1ccccc1N(C)S(C)(=O)=O
  AmpC nodet inh: 21%
> O=C(c1ccc2c(c1)OCO2)N1CCN(c2ccc(F)cc2)CC1
  AmpC nodet inh: 22%

# (continued)
SMILES,AmpC nodet inh
Cc1nc(N2CCN(c3ccccc3)CC2)[nH]c(=O)c1Cc1cccc2ccccc12,-15%
Cn1cccc1C(=O)N1CCC2(CCCN(c3ccncc3)C2)CC1,27%
CCN(CC)C(=O)CSc1nnc(-c2cccs2)n1Cc1ccco1,30%
O=C(CSc1nnc(CNC(=O)c2ccco2)o1)NC1CCCC1,-2%
COC(=O)CC(=O)CSc1nc2c(cc1C#N)CCCCC2,9%
Cc1ccc2[nH]c(=O)c(C(c3nnnn3CCc3ccccc3)N3CCOCC3)cc2c1 (centres undefined),68%
O=S(=O)(Cc1ccccc1)N1CCc2ccccc2C1,-6%
Cc1ccc(C(=O)Nc2nnc(-c3cccs3)s2)cc1C,-10%

# Looked up by compound from the entries so far, two records:
SMILES,AmpC nodet inh
Cc1ccc2[nH]c(=O)c(C(c3nnnn3CCc3ccccc3)N3CCOCC3)cc2c1 (centres undefined),68%
Cn1cccc1C(=O)N1CCC2(CCCN(c3ccncc3)C2)CC1,27%

# More records follow:
SMILES,AmpC nodet inh
O=C(c1ccco1)c1cn(CC(=O)N2CCCc3ccccc32)c2ccccc12,12%
C1=C(C(c2nnnn2C2CCCCC2)N2CCCCC2)COc2ccccc21 (centres undefined),-6%
CC(C)(C)c1cc(/C=C(\C#N)C(N)=S)cc(C(C)(C)C)c1O,-1%
Cc1ccccc1-n1ncc2c(SCC(=O)NCc3cccs3)ncnc21,0%
Cc1ccnc(SCC(=O)N2CCC(C(N)=O)CC2)n1,-3%
Fc1ccccc1N1CCN(C(c2ccncc2)c2nnnn2C2CCCC2)CC1 (centres undefined),80%
Cc1ccc(S(=O)(=O)N2CCN(Cc3cc(C(C)C)ccc3O)CC2)cc1,28%
CCNc1ncc2nc(-c3cc(F)cc(F)c3)c(=O)n(-c3ccc(OC)cc3)c2n1,3%

# Next section.
SMILES,AmpC nodet inh
O=C(COc1ccc(S(=O)(=O)NC2CCCCC2)cc1Cl)NCc1cccnc1,48%
O=C(CSc1nc2ccccc2[nH]1)c1cccs1,8%
CCSc1nc(-c2cccs2)nc2c1c(=O)n(C)c(=O)n2C,0%
O=C(CN1CCCCCC1)Nc1ccc(F)c(F)c1F,2%
COc1ccccc1NC(=O)N(Cc1ccc2c(c1)OCO2)Cc1nc2ccccc2c(=O)[nH]1,-11%
CC(C)c1ccc(N2CC(C(=O)Nc3nccs3)CC2=O)cc1 (centres undefined),27%
O=C(NCC1CCCO1)C(C(=O)c1ccccc1)n1cc(Cl)ccc1=O (centres undefined),-12%
CCn1c(SCC(=O)Nc2ccc(C(=O)OC)cc2)nnc1-c1cccs1,28%

# The results go on:
SMILES,AmpC nodet inh
CCOc1cc(C)c(C(C)C)cc1S(=O)(=O)NCc1ccccn1,55%
CCOC(=O)Nc1ccc(OC)cc1S(=O)(=O)N1CCCCC1,-6%
O=C1C(C=NCCCn2ccnc2)=C(O)c2ccccc21,-7%
CCOC(=O)c1c(NC(=O)OC)sc(C(=O)N(C)C)c1C,20%
COC(=O)c1[nH]c2ccc(C)cc2c1NC(=O)Nc1ccccc1OC,87%
Cc1ccccc1CS(=O)(=O)CCC(=O)NCCCN1CCN(c2ccccc2F)CC1,75%
O=C(CCCn1c(=O)c2ccccc2n(CC(=O)NCc2ccco2)c1=O)NCc1ccco1,4%
CC(=O)N1CCN(S(=O)(=O)c2ccc(C)cc2)C1c1ccc(N(C)C)cc1 (centres undefined),87%

# (continued)
SMILES,AmpC nodet inh
Cn1c(N2CCN(C(=O)Nc3ccc(C(F)(F)F)cc3)CC2)nc2ccccc21,6%
COC(=O)c1c(C(=O)OC)c2ccncn2c1Cl,-6%
O=C1N(S(=O)(=O)c2ccccc2F)C(=O)C2(CCCC2)N1S(=O)(=O)c1ccccc1F,-5%
Cn1c(Cn2nnc3ccccc32)nnc1SCC(=O)N1c2ccccc2CCc2ccccc21,92%
Cc1cccc(NC(=O)C2CCCN2S(=O)(=O)c2cccc3cccnc23)c1 (centres undefined),34%
Cn1c(NC(=O)c2ccc(C(C)(C)C)cc2)cc(=O)n(C)c1=O,12%
CC(NC(=O)COC(=O)CCNC(=O)c1ccco1)C12CC3CC(CC(C3)C1)C2 (centres undefined),81%
O=C(Cn1ncc2c3ccccc3n(Cc3ccc(F)cc3)c2c1=O)N1CCC2(CC1)OCCO2,114%

# Continuation.
SMILES,AmpC nodet inh
O=C(O)CCn1ccnc1-c1ccccc1,2%
CCOc1ccc(CN2CCC(C(=O)N3CCN(c4ccccc4F)CC3)CC2)cc1OC,96%
CC(=O)N1[C@H](C)C=C[C@]1(Cc1ccccc1)C(=O)NCCc1c[nH]c2ccccc12,91%
Cc1nnc2sc(-c3ccccn3)nn12,5%
CC(C)CCOc1cccc(C2c3c(oc4ccccc4c3=O)C(=O)N2CCCN2CCOCC2)c1 (centres undefined),115%
CCOC(=O)c1cccc(NC(=O)CCS(=O)(=O)c2cccs2)c1,-6%
NC1C2CN(c3nc4c(cc3F)c(=O)c(C(=O)O)cn4-c3ccc(F)cc3F)CC12 (centres undefined),-8%
O=C1CCC(C(=O)OCC(=O)C23CC4CC(CC(C4)C2)C3)N1 (centres undefined),11%

# Other structures:
SMILES,AmpC nodet inh
COc1cc([C@H]2c3cc4c(cc3[C@@H](O)[C@@H]3COC(=O)[C@H]23)OCO4)cc(OC)c1OC,24%[12.8 µM]
COc1ccc(CCNC(=O)CCn2c(=O)[nH]c3cc(OC)c(OC)cc3c2=O)cc1OC,20%
Cc1ccc(CCN2CC(C(=O)NCCCN3CCN(C)CC3)CC2=O)cc1 (centres undefined),35%
Cc1nc2nc(CSc3nc4ccccc4s3)cc(=O)n2[nH]1,-14%
Cc1cnc(CNc2nc(-c3cccnc3)nc3ccccc23)cn1,30%
CN1CCN(C(=O)c2cnn3c(C(F)(F)F)cc(-c4ccc5c(c4)OCO5)nc23)CC1,54%
CCOC(=O)c1ccc(S(=O)(=O)Nc2cc(C(C)(C)C)no2)cc1,-7%
O=C(CN1C(=O)COCC1=O)N1CCOCC1,-1%

# Following part.
SMILES,AmpC nodet inh
CCOC(=O)N1CCC(NC(=O)C2CCCN(S(=O)(=O)c3cccnc3)C2)CC1 (centres undefined),4µM*[single pt active]
Nc1nc(Nc2ccccc2)nc2c1ncn2[C@@H]1O[C@@H](CO)[C@H](O)[C@H]1O,-1%
COCCNC(=O)CN(C)S(=O)(=O)c1ccc(Br)cc1,-1%
COc1ccc(-c2noc(CN(C(=O)c3c(-c4ccccc4Cl)noc3C)C(C)C)n2)cc1,58%
COc1ccc(C2CC(=O)c3cnc(NC(=O)c4cc(OC)cc(OC)c4)nc3C2)cc1 (centres undefined),57%
O=C(CSc1cn(CCNC(=O)c2cccs2)c2ccccc12)NCC1CCCO1 (centres undefined),21%
CC1CCN(C(=O)CCc2nc3cc(S(=O)(=O)N(C)C)ccc3n2C)CC1,32%
COc1cc(C(=O)OCCN2CCOCC2)ccc1O,-5%

# (continued)
SMILES,AmpC nodet inh
O=C(Cn1c(=S)nc2ccccn21)N1CCc2ccccc2C1,3%
COc1cccc(NC(=O)Cc2c(O)c3ccccc3[nH]c2=O)c1,-4%
Clc1ccccc1OCc1nc(-c2ccncc2)no1,21%
COc1cccc2cc(C(=O)OC3CCN(C)CC3)c(=O)oc12,9%
CC(=O)c1c(O)n(C)c(=S)n(-c2ccccc2)c1=O,75%
CCCc1cc(=O)n2[nH]c(C)cc2n1,-9%
CSc1ccccc1NC(=O)c1ccoc1C,-18%
Cc1ccc(CCNC(=O)C2CCCN(S(=O)(=O)c3c(C)noc3C)C2)cc1 (centres undefined),30%
O=C(CNC(=O)c1ccco1)OCN1C(=O)c2ccccc2C1=O,-9%

# These rows are one share of the data; rates above refer to the full screens.
